Screening results deposited in PubChem by several laboratories.
Yeast UUG start: yeast start codon fidelity modulation; activity score, % at 18.7 µM; S. cerevisiae UUG-firefly luciferase reporter, luminescence/redox ratio; AID 602363; 350,000 tested, 0.13% active;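 active = replicate mean at a twofold rise or more, about +100% in these data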;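 note: firefly luciferase made from a UUG start codon reports start codon fidelity; reporter light over untreated wells divided by growth signal over untreated wells; some hits fall short of that in this replicate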
PABP FP inh: PABP-poly(A) binding inhibition | P11940 | PABP-poly(A) RNA binding, fluorescence polarization | inhibition, % at 35 µM | 290,000 tested, 1% active;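 active = 50% or more with normal probe brightness, or confirmed in later tests; inconclusive = above 50% with abnormal brightness, or retests that disagree; inactive = below 50% or failed in later tests; about a fifth of its hits are not listed in these tables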;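 note: calls also rest on retests at 20 µM and on dose response follow-up; controls were probe without protein and protein plus probe with vehicle; some compounds called inactive have numbers as strong as hits; many hits fall short of the cut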
MT1-MMP act inh: blocks activation of human MT1-MMP. P50281. HT1080 RFP-PRO-GFP cells, GFP/RFP ratio fluorescence, overnight; percent of plate control window, DMSO zero. GFP/RFP ratio change, % at 20 µM. 360,000 tested, 0.061% active;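 active = GFP/RFP ratio change of at least 30% with cell ATP level not reduced by more than half and red fluorescence within 50% of control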; note: strong numbers were not always called active
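Material – HT1080 RFP-PRO-GFP cells · Control set – DMSO wells and RFP-L50D-GFP cells · Incubation – overnight cell settling, then overnight compound exposure, 37 °C, 5% CO2 · Compound dosing – single-point 20 µM compound, 1% DMSO · Read-out – GFP/RFP fluorescence ratio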
CSC inhib: blocks cancer stem cells. AID 2717. cancer stem cell-like cells viability, luminescence. 300,000 tested, 1.1% active. inhibition, % at 7.5 µM;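 active = mean at 75% or more and at least half the replicates too; inconclusive = mean and replicates disagree; tested in HMLE shEcad cells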;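 note: 0% = median of negative and 100% = median of positive control wells; the first replicate is given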
HIV Env fusion: blocks HIV Env-driven cell-cell fusion. HeLa-JRFL Env/CEM21 cell fusion, luciferase. inhibition, % at 12.3 µM. 360,000 tested, 1.1% active;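 active = mean replicate inhibition score of at least 50 and every replicate individually at or above 50; inconclusive = only one of the two criteria met; inactive = mean below 50 and not all replicates reaching 50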;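 note: 0% = plate neutral controls and 100% = maraviroc near 300 nM; one replicate is shown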
eIF4H FP inh: inhibitors of RNA binding by human eIF4H; Q15056; eIF4H fluorescence polarization binding assay; inhibition, % at 35 µM; 290,000 tested, 0.94% active;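 active = 50% or more with normal probe brightness, or confirmed in later tests; inconclusive = above 50% with abnormal brightness, or retests that disagree; inactive = below 50% or failed in later tests; about a fifth of its hits are not listed in these tables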;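 note: calls also rest on retests at 20 µM and on dose response follow-up; 0% = protein and probe with vehicle and 100% = probe without protein; strong numbers were not always called active; many hits fall short of the cut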
Rce1 inh: yeast Ras-converting enzyme inhibition; yeast membranes, quenched prenylated peptide cleavage fluorescence; calls only; 290,000 tested, 0.27% active;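 active = fall in fluorescence gain of 50% or more versus controls, with final raw signal at or below 3038400; inconclusive = same 50% fall but final raw signal above 3038400; inactive = fall in fluorescence gain under 50%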;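 note: plate controls were neutral control wells for no effect and wells lacking membranes for full effect; tested at 10 µM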
Target sequence (Q03530 whole entry, looked up): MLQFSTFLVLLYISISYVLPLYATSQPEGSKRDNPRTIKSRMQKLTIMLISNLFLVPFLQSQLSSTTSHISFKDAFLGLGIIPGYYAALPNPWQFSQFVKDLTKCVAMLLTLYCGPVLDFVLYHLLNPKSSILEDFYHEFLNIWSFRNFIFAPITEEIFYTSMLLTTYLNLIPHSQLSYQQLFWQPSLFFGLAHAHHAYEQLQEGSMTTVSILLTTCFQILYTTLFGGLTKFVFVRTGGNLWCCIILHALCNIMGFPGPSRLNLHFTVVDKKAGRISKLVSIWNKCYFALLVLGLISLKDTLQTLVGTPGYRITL
MT1-MMP act inh RFP: recorded beside MT1-MMP act inh, whose call it bears; RFP signal change, %; measured here: RFP expression control read;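 0 = vehicle wells; hits needed this value within 50% of zero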
* = called active by the depositor; i = inactive; ? = inconclusive; nt = no result given. This is a subset; rates above refer to the full screens.

SMILES	Yeast UUG start	PABP FP inh	MT1-MMP act inh	MT1-MMP act inh RFP	CSC inhib	HIV Env fusion	eIF4H FP inh	Rce1 inh
COCCN1Cc2cccc(C(=O)Nc3cc(C)cc(C)c3)c2C1=O	-14	5	5	-2	9	nt	1	i
Cc1nn(-c2ccccc2)nc1CNC(=O)C1CCC1	nt	6	2	0	6	-9	10	i
CC1Oc2ccccc2N(Cc2cccc(F)c2)C1=O (stereo not drawn)	-16	-14	3	2	-8	14	1	nt
O=C(O)COc1ccc2oc3ccccc3c2c1	-7	-5	2	1	-7	13	-5	i
COc1ccc(C(=O)OCCCc2cc3ccccc3c(=O)o2)cc1	-14	nt	3	2	-25	5	nt	nt
CCOC(=O)C1=C(CN2CCSCC2)NC(=O)NC1c1ccc2c(c1)OCO2 (stereo not drawn)	-6	-13	1	-4	3	1	-6	i
CCOC(=O)CSc1nc(C)c2cccc(C)c2n1	nt	0	3	-3	-7	10	-1	i
Cc1ccc(OCCN2CCN(C)CC2)c([N+](=O)[O-])c1	nt	-5	3	6	-8	nt	6	i
CCOc1ccccc1Nc1ccc(C(=O)O)cc1NC(C)=O	48	3	1	6	-5	nt	1	nt
Cc1ccc(N(C(=O)c2ccc(CN3CCOCC3)o2)C(C(=O)NCCC(C)C)c2cccs2)c(C)c1 (stereo not drawn)	nt	-1	-2	0	-7	-3	3	i
Cc1cc(/C=C2\SC(=O)NC2=O)c(C)n1-c1ccc(N2CCOCC2)cc1	-1	4	10	-12	-16	3	-2	i
Cc1cc(O)c(C(C)C)cc1N=Cc1ccccc1[N+](=O)[O-]	-8	nt	-11	3	nt	-41	nt	nt
CN(C)c1ncnc2c1ncn2[C@H]1CN(Cc2cccs2)C[C@@H](CO)O1	-16	nt	0	0	nt	-6	nt	nt
COc1cc(/C=C2/C(=O)N(c3cccc(Br)c3)N=C2C)cc(OC)c1O	-13	?	-3	0	26	14	?	i
COc1ccc(CN(CC(=O)NCCc2ccccc2)C(=O)CCC(=O)Nc2cc(C)ccn2)cc1	-21	8	-6	-2	-17	31	3	i
O=C(c1ccc(-c2ccc(Cl)cc2)o1)N1CCN(c2ccc([N+](=O)[O-])cc2Cl)CC1	-9	7	-11	-9	43	nt	-1	i
O=C(O)Cc1cc(C(=O)Nc2ccc(Br)cc2)sc1-c1ccccc1	nt	3	nt	nt	20	nt	7	i
CSc1nnc(C)c(=O)n1COC(=O)COc1ccc(F)cc1	nt	-3	-4	1	-7	-6	2	i
CC(C)Cn1c(N)c(C(=O)CCl)c(=O)n(C)c1=O	-11	8	6	-7	4	3	3	i
O=C(NCCCc1ccccc1)c1ccc(CS(=O)Cc2ccc(Cl)cc2)o1 (stereo not drawn)	-13	0	4	2	-4	2	2	i

Brought forward from above: 3 compounds; new compounds follow.
SMILES	Yeast UUG start	PABP FP inh	MT1-MMP act inh	MT1-MMP act inh RFP	CSC inhib	HIV Env fusion	eIF4H FP inh	Rce1 inh
CSc1nnc(C)c(=O)n1COC(=O)COc1ccc(F)cc1	nt	-3	-4	1	-7	-6	2	i
CC(C)Cn1c(N)c(C(=O)CCl)c(=O)n(C)c1=O	-11	8	6	-7	4	3	3	i
O=C(NCCCc1ccccc1)c1ccc(CS(=O)Cc2ccc(Cl)cc2)o1 (stereo not drawn)	-13	0	4	2	-4	2	2	i
O=C(c1ccccc1)N1CCCC(c2ccc(Cl)cc2)=N1	nt	0	1	-5	6	nt	5	i
c1ccc(-c2csc(-n3cnnn3)n2)cc1	-31	-4	-1	-8	1	-98	8	i
Cn1cc(S(=O)(=O)N2CCCC2)cc1C(=O)NCCc1ccccc1	-6	3	6	5	-4	9	1	i
Cc1nnsc1C(=O)Nc1ccccc1Cl	nt	7	7	2	-2	-72	-4	i
O=C(c1ccccc1)N1CCCC(C(=O)N2CCN(c3ccccc3)CC2)C1 (stereo not drawn)	nt	2	2	1	-15	-5	7	i
CCCN(Cc1ccccc1)C(=S)Nc1ccc(OCC)cc1	-26	0	3	3	1	-1	-8	i
O=c1cc(CSc2nnnn2-c2ccccc2)nc2sccn12	nt	3	-8	-3	-12	8	13	i
COc1ccc(C2C(C#N)=C(N)OC3=C2C(=O)CC(C)(C)C3)c([N+](=O)[O-])c1OC (stereo not drawn)	1	1	-21	5	11	15	-8	i
OC(c1ccccc1)c1nc2ccccc2[nH]1 (stereo not drawn)	-16	-9	2	5	-14	15	-6	i
CCCCn1nnc(NC(=O)C(c2ccccc2)c2ccccc2)n1	nt	-7	0	1	8	-1	-1	i
N#Cc1nc(COc2ccc(-c3ccccc3)cc2)oc1NCCCN1CCOCC1	8	-2	3	-5	nt	nt	-14	i
COc1ccc(C(=O)Nc2ccc3oc(Cc4ccc(Cl)cc4)nc3c2)cc1OC	11	-4	8	-15	-4	?	3	i
CCc1ccc(NC(=O)CCCn2nc(CC)n3c(cc4occc43)c2=O)cc1	-14	-2	3	2	-8	11	-17	i
O=C(COC(=O)Cc1ccc(F)cc1)Nc1cc(S(=O)(=O)N2CCOCC2)ccc1N1CCCC1	nt	3	1	4	-5	2	-1	i
c1ccc(-n2ncc3c(NCCCN4CCOCC4)ncnc32)cc1	-8	10	0	3	-13	-71	-1	i
CN1CCC(N(C)C(=O)c2ccc(Cl)c(S(=O)(=O)N(C)c3ccc(Cl)cc3)c2)CC1	2	nt	-8	-2	15	3	nt	nt
C[C@@H]1CC[C@]2(O[C@H](CCO)C[C@H](O)[C@H]2O)O1	-13	nt	0	3	-14	-9	nt	i
O=C(Nc1ccc(N2CCOCC2)c(Cl)c1)c1ccco1	-17	41	0	4	-17	nt	5	i
CC(=O)N1CC2(C)CN(C(C)=O)CC(C)(C1)C2	2	2	2	4	-12	5	-9	i
O=C(CSCC(=O)Nc1cccc2ccccc12)Nc1cccc2ccccc12	-21	-5	0	-3	0	71*	1	i
Cc1onc(-c2ccccc2)c1C(=O)N1CCCN2C(=O)c3ccccc3C21 (stereo not drawn)	nt	-6	-2	-2	-11	2	-12	i
CC(=O)Nc1ccc(S(=O)(=O)N2CCN(c3cc(C)ccc3C)CC2)cc1	1	-6	-5	-7	13	-13	-12	i
Cc1nn(-c2ccccc2)c(C)c1NC(=O)Cc1cccs1	-19	2	3	6	-6	15	-5	i
O=C(CN1CCCCCC1)Nc1ccc(S(=O)(=O)N2CCCCC2)cc1	nt	3	1	0	nt	2	-15	i
CC(=O)Nc1ccc(S(=O)(=O)n2cnc3cc(C)c(C)cc32)cc1	-14	-3	7	2	-13	2	-2	i
Cc1nn(C(C)C(=O)NCc2ccco2)c(=O)c2nn(-c3ccccc3)c(C)c12 (stereo not drawn)	-23	-3	-8	0	-21	0	1	i
CCOc1ccc(NC(=O)CC2C(=O)N(CC)C(=S)N2CCN2CCOCC2)cc1 (stereo not drawn)	nt	15	0	0	0	-5	2	i
CCCCCCCCCCOC(=O)NC1CCS(=O)(=O)C1 (stereo not drawn)	nt	0	-1	-11	-2	-9	5	i
Cc1cccc(C(=O)NCCCN(C)CCCNC(=O)c2cccc(C)c2)c1	-5	6	3	1	0	-35	-1	i
O=C(NCc1ccc2c(c1)OCO2)c1c(O)c2cccc3c2n(c1=O)CCC3	16	4	3	0	6	nt	2	nt
CC(C)NCC(O)COC1CCC(C(C)(C)C)CC1 (stereo not drawn)	-2	5	-2	-4	55	12	-1	i
CCc1ccc(NC(=O)CSc2nc(N)c(NC(=O)c3ccc(F)c(F)c3)c(=O)[nH]2)cc1	-12	10	6	5	-12	2	3	i
CCc1c(C)nc2cc(-c3ccc(OC)c(OC)c3)nn2c1N1CCCC1	nt	-4	-4	-13	61	nt	-12	i
O=C(CCn1c(=O)c2ccccc2n(Cc2cc(=O)n3ccccc3n2)c1=O)NCc1ccco1	-15	3	-1	3	-16	nt	5	i
COc1ccc(S(=O)(=O)N(C)CC(=O)NCCN2CCOCC2)cc1C	-13	3	6	5	-28	10	-8	i
OC(C#Cc1ccccc1)(c1ccccc1)c1ccccc1	-9	nt	-2	-5	nt	7	nt	nt
Cc1ccc(C(C(=O)NCc2ccc(F)cc2)N(C(=O)c2csnn2)C2CC2)o1 (stereo not drawn)	5	-7	1	2	-13	-2	-4	nt
COc1cc(C#N)ccc1OC(=O)C1CCN(C(=O)c2ccc(F)cc2)CC1	nt	nt	3	2	-1	-11	nt	i
Cc1ccc(O)c(-c2[nH]ncc2C(=O)c2ccc(Br)cc2)c1	-1	17	6	-8	14	13	-2	i
Cc1cc(C)c2c(=O)[nH]c(=O)n(Cc3ccccc3)c2n1	nt	96*	2	3	-6	nt	103*	i

3 entries out of the list above, ordered by the value under MT1-MMP act inh RFP, rising.
canonical_smiles	MT1-MMP act inh RFP
CC(=O)Nc1ccc(S(=O)(=O)N2CCN(c3cc(C)ccc3C)CC2)cc1	-7
O=C(CCn1c(=O)c2ccccc2n(Cc2cc(=O)n3ccccc3n2)c1=O)NCc1ccco1	3
Cc1nn(-c2ccccc2)c(C)c1NC(=O)Cc1cccs1	6

The results go on.
SMILES	Yeast UUG start	PABP FP inh	MT1-MMP act inh	MT1-MMP act inh RFP	CSC inhib	HIV Env fusion	eIF4H FP inh	Rce1 inh
COc1ccc(C(=O)N2CCN(c3c(C)cccc3C)CC2)cc1OC	-5	32	-1	-5	5	11	23	i
N#Cc1ccccc1OCc1cn(CC(=O)c2ccc(O)cc2)nn1	152*	nt	0	3	nt	-36	nt	nt
Cc1cc(NC(=O)c2ccccc2)nc2c1c(=O)oc1ccccc12	nt	-10	3	3	12	0	-7	i
CCc1nnc(NS(=O)(=O)c2ccc(NC(=O)c3ccccc3)cc2)s1	6	-7	0	1	-13	-7	0	i
C#CCOCCOCCOCCNc1nc(N2CCOCC2)nc(N2CCN(C(=O)[C@H](Cc3ccc(O)cc3)n3cc(CCO)nn3)CC2)n1	-6	nt	1	5	nt	-2	nt	nt
CCOc1ccc(C(O)Cc2nc3ccccc3n2C)cc1 (stereo not drawn)	-11	1	-8	-3	-5	nt	1	i
Cc1nonc1C1CCCN1C(=O)c1cc(COc2ccc(F)cc2F)on1 (stereo not drawn)	nt	-11	-1	-3	-11	-74	2	i
O=C(O)CSCC(=O)NCc1ccc(Cl)cc1	nt	-3	nt	nt	-11	-10	-8	i
Cc1ccc2sc(-c3ccc(NC(=O)/C=C\C(=O)O)cc3)nc2c1	-24	9	-1	1	nt	-254	4	i
COc1cc(=O)n(C)c2c(OCC3OC(C)(C)OC3(C)C)cccc12 (stereo not drawn)	32	0	12	2	5	nt	8	i
O=C(NCc1ccc(Cl)cc1)C1CCN(S(=O)(=O)c2cccnc2)CC1	13	-6	-1	0	-10	-2	-6	i
CCCCOC(=O)Nc1sc2nc(C)cc(C)c2c1-n1cccc1	-7	2	-4	-4	-14	nt	-4	i
CCOC(=O)N1CCN(C(=O)c2cn(C)c(=O)c3c2c2ccccc2n3C)CC1	5	1	-2	1	13	-112	6	i
O=C(CSc1nnc(CNC(=O)C23CC4CC(CC(C4)C2)C3)n1-c1ccc(F)cc1)Nc1ccc(F)cc1	-12	-13	-2	-8	7	6	5	i
CC(C)(C)[C@@H]1C=C(C(=O)O)[C@H](c2ccc(Cl)cc2)N1S(=O)(=O)c1ccccc1	-5	nt	1	8	nt	-17	nt	nt
CCc1nnc2c3cnn(-c4ccccc4)c3ncn12	-25	1	4	-2	-7	-133	-1	i
Cc1ccc(-c2nnc(Nc3ccc(C(=O)N(C)C)cc3)c3ccccc23)cc1S(=O)(=O)NC(C)(C)CO	nt	7	2	2	-12	-1	-14	i
CN1CC(=O)N(CC(=O)Nc2ccc(Cl)c(C(F)(F)F)c2)C1=O	-11	-4	0	-1	-1	-19	-4	i
